Screening results from PubChem.
KCNQ2 block – KCNQ2 potassium channel inhibitors, primary screen, cell-based, CHO-K1, FluxOR thallium flux, B-score (AID 2156); O88943; 20 min; hits give low values; only compounds with negative scores are shown here; some inactives read as strong as hits; B-score at 10 µM; 310,000 compounds, 1.1% hits;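 active = fluorescence ratio B-score at most minus 3 library SDs, with starting brightness B-score within 2 library SDs, cut at about -5.5 in these data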
Target sequence (O88943 whole entry, looked up): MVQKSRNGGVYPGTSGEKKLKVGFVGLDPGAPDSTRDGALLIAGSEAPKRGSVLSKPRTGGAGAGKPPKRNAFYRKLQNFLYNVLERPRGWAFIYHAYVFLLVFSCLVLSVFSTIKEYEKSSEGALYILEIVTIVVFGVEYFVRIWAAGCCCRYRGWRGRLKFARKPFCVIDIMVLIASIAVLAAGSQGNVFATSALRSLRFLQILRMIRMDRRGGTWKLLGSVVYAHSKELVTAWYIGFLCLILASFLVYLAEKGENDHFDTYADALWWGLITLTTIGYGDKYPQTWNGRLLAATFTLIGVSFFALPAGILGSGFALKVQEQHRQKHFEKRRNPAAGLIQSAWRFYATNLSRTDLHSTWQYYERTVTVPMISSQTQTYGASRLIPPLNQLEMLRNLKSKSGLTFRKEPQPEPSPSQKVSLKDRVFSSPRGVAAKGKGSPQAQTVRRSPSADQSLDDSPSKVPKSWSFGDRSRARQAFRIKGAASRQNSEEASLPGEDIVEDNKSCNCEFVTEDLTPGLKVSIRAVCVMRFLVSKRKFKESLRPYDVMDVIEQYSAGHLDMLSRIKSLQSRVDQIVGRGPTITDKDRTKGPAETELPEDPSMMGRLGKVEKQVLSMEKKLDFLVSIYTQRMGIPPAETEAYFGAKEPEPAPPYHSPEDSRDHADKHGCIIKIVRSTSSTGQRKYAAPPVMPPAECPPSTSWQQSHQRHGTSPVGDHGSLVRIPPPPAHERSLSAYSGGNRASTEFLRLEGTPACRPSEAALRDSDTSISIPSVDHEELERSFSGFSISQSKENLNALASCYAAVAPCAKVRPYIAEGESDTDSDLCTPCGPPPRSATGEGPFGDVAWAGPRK
KCNQ2 block baseline – further read-out of KCNQ2 block, marked with its call; B-score; measured here: initial fluorescence intensity artifact check;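 brightness before thallium and not channel activity; 0 = typical well and far values either way flag optical interference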
* marks the source's active call; other numbers are inactive results; i = inactive. Only part of the results is shown; the hit share may differ from the screen's.

The first 2 records, to show the layout:
Under each structure – KCNQ2 block, KCNQ2 block baseline
- CCOC(=O)c1c(C)[nH]c(C)c1C(=O)CSc1nc2ccccc2c(=O)n1-c1ccc(CC)cc1
 : i, -1.2
- Cc1cc(=O)oc2cc(OCCc3ccccc3)ccc12
 : i, -0.95

The list itself, repeating the preview:
Under each structure – KCNQ2 block, KCNQ2 block baseline
- CCOC(=O)c1c(C)[nH]c(C)c1C(=O)CSc1nc2ccccc2c(=O)n1-c1ccc(CC)cc1
 : i, -1.2
- Cc1cc(=O)oc2cc(OCCc3ccccc3)ccc12
 : i, -0.95
- CC(=O)NS(=O)(=O)c1ccc(N=NN2CCOCC2)cc1
 : i, -0.04
- CCC(C)c1ccccc1NC(=O)COC(=O)c1ccc2[nH]c3c(c2c1)CCCC3 (configuration not stated)
 : i, 0.41
- CC(=O)c1c(C(C)=O)c(C)n(NC(=O)c2ccc(Cl)cc2)c1C
 : i, 0.38
- CCOC(=O)CCCn1c(C)nc(=O)c(-c2ccccc2)c1C
 : i, 2.7
- Cc1sc2ncnc(OCC(=O)NCc3cccs3)c2c1C
 : i, 0.35
- Cc1ccccc1NC(=O)CSc1[nH]c(=O)cc(C)c1C#N
 : i, -2.2
- COc1cc(-c2cn[nH]c2N)cc(OC)c1OC
 : i, -0.32
- c1cc2c3c(cccc3c1)NC1(CCC3(CC1)Nc1cccc4cccc(c14)N3)N2
 : i, -1.1
- O=C1c2ccccc2C(=O)C12OC2c1cccc2ccccc12 (configuration not stated)
 : i, 2.2
- COc1ccc2ccccc2c1/C=N/NC(=O)c1nnn(-c2nonc2N)c1C(C)C
 : i, -0.07
- O=C1c2cccc3cccc(c23)C(=O)N1Cc1cccnc1
 : i, 0.17
- CN(C)S(=O)(=O)c1ccc(/C(O)=C2/C(=O)C(=O)N(CCCN3CCOCC3)C2c2ccncc2)cc1 (configuration not stated)
 : i, -1
- Cc1ccc(C(C)(C)C)cc1S(=O)(=O)NC(=O)c1ccccc1
 : i, 0.49
- Cc1c(C(=O)N2CC(C)OC(C)C2)sc2nc(-c3ccc(F)cc3)cn12 (configuration not stated)
 : i, 0.99
- CC1=CC2=NC(=O)/C(=C\c3ccc(OC(=O)c4ccco4)cc3)C(=N)N2O1
 : i, -0.5
- COc1ccccc1NC(=O)C(=O)NCC1COc2ccccc2O1 (configuration not stated)
 : i, 0.97
- CCCCCCC(=O)N(O)C1CC(=O)N(c2ccc(C)cc2)C1=O (configuration not stated)
 : i, -0.06
- NN(Cc1ccccc1)C(=S)Nc1ccc(Cl)c(Cl)c1
 : i, 0.13
- O=c1[nH]c2ccccc2s1
 : i, -0.61
- CCOC(=O)c1nc(Nc2cccc(C)c2)c2ccccc2n1
 : i, -0.15
- CCOc1ccc(N/C(C)=C\C(=O)c2ccc3c(c2)OCCO3)cc1
 : i, -0.56
- COc1ccc(NC(=O)C(C)N2c3cccc4cccc(c34)S2(=O)=O)cc1 (configuration not stated)
 : i, -0.95
- O=C1CSC(c2ccccc2Cl)N1 (configuration not stated)
 : i, 0.55
- Cc1ccc2nc(SCC(=O)NC(=O)NCc3ccco3)[nH]c2c1
 : i, 3
- COc1cc(NC(=O)c2ccc(COc3ccccc3Br)o2)cc(OC)c1OC
 : i, -0.44
- O=C(Nc1c(-c2ccccc2)nc2ccccn12)c1ccccc1F
 : i, 0.12
- O=C(Nc1ccccn1)c1ccc(S(=O)(=O)N2CCCCC2)cc1
 : i, 1.4
- COc1ccc(OC)c(/C=C2\SC(N3CCCCC3)=NC2=O)c1
 : i, 2
- O=C(CCS(=O)(=O)c1ccc(Br)s1)NCc1ccc2c(c1)OCO2
 : i, -0.23
- Cc1cc(C)n(C(=O)CCN2C(=O)c3ccccc3C2=O)n1
 : i, 0.02
- COc1cc(/C=N/OCC(=O)NC23CC4CC(CC(C4)C2)C3)ccc1OCc1ccccc1
 : i, 0.06
- O=C(CSCc1c[nH]c(=O)[nH]c1=O)OCC(=O)c1ccc(Br)cc1
 : i, 0.87
- CCOC(=O)c1sc(NC(=O)CSc2nc3ccccc3s2)c(C(=O)OCC)c1C
 : i, 1.8
- Cc1ccc(OC(C)C(=O)N2CC(=O)Nc3ccccc32)c(C)c1 (configuration not stated)
 : i, -1.1
- N#Cc1ccccc1OCC(=O)OCC(=O)N1CCN(C(=O)c2ccco2)CC1
 : i, 0.03
- O=C1C=CC(=O)N1Nc1ccc(Br)cc1
 : i, 0.24
- CCOc1ccc(S(=O)(=O)NC(Cc2c[nH]c3ccccc23)C(=O)O)cc1 (configuration not stated)
 : i, -0.52
- CC(=O)N1[C@H](C)C=C[C@]1(Cc1ccccc1)C(=O)NCCN1CCOCC1
 : i, -0.04
- Cc1ccc(C(C(=O)NC(C)(C)C)N(Cc2ccco2)C(=O)CCC(=O)Nc2ccccn2)cc1 (configuration not stated)
 : i, -1.6
- CCOc1ccc(CCNC(=O)c2cc3sccc3n2CC)cc1OCC
 : i, -0.45
- Cc1nn(C)c(Oc2cccc(Cl)c2)c1C(=O)Nc1ccc(F)cc1F
 : i, -1.2
- COc1cccc(CC(=O)NC2CCSc3ccccc32)c1 (configuration not stated)
 : i, 0.01
- C=CCn1c(=O)c(C(=O)Nc2ncccc2O)c(O)c2ccccc21
 : i, 2.4
- Cc1onc(-c2ccccc2)c1CNC(=O)Nc1ccc(F)cc1F
 : i, -1
- O=C(NC12CC3CC(CC(C3)C1)C2)c1ccc(-c2ccccc2Cl)o1
 : i, -0.01
- Cc1cc(NC(=O)C(C)Oc2ccccc2)no1 (configuration not stated)
 : i, 2.6
- O=C(NNC(=O)c1ccc2c(c1)OCO2)NC12CC3CC(CC(C3)C1)C2
 : i, 0.47
- Cc1ccc(-c2nn3c(C)nnc3s2)cc1NC(=O)CSc1ccc(Cl)cc1
 : i, -1.4

Further structures.
Under each structure – KCNQ2 block, KCNQ2 block baseline
- CCOC(=O)c1c(-c2ccc(OCC)cc2)csc1NC(=O)CCN1C(=O)c2ccccc2C1=O
 : i, -0.69
- NC(=O)CC(NC(=O)Cc1cccc2ccccc12)c1ccc(N2CCCCCC2)c([N+](=O)[O-])c1 (configuration not stated)
 : i, -0.05
- O=C(NCc1ccccc1)C(c1ccncc1)N(C(=O)c1csnn1)c1ccccc1F (configuration not stated)
 : i, 0.01
- COc1ccc(CNc2nc(NC(C)=O)nn2-c2ccccc2)cc1
 : i, -0.05
- COc1ccc(N2CCN(C(=O)c3oc4ccccc4c3NC(=O)CCc3cc(OC)no3)CC2)cc1
 : i, -0.58
- CCOC(=O)Cc1csc(NC(=O)CSc2nc(C)cc(=O)[nH]2)n1
 : i, -0.35
- CCN(CC(=O)Nc1cccc(S(N)(=O)=O)c1)Cc1nc2ccccc2c(=O)[nH]1
 : i, 0.13
- CCOc1ccccc1NC(=O)Cc1ccccc1OC
 : i, 0.23
- CCCc1nn(C)c2c(=O)[nH]c(-c3ccccc3OCC)nc12
 : i, -0.23
- O=C(Cn1ncc2c(=O)oc3ccccc3c21)NC1CC1
 : i, 1.5
- NC(=O)c1cccnc1Nc1ccccc1F
 : i, -0.25
- O=C(N/C(=C/c1cccs1)C(=O)N1CCOCC1)c1cccs1
 : i, -0.15
- O=C(c1cc(COc2ccc(F)cc2Cl)on1)N1CC2C[C@@H]3CC1C[C@H](C2)C3
 : i, -1.6
- Cc1ccc(C)c(S(=O)(=O)N=Nc2c(O)[nH]c3ccccc23)c1
 : i, 0.03
- COc1ccc(N2CCN(C(=O)Cc3coc4cc(C)ccc34)CC2)cc1
 : i, -0.19
- COCCn1c(SCC(=O)c2ccccc2)nc2c(c1=O)SCC2
 : i, -1.7
- O=C(N/N=C/c1ccc([N+](=O)[O-])s1)c1ccccc1Br
 : i, 1.4
- CCCN1CCc2c(sc(NC(=O)c3ccc(S(=O)(=O)N4CCN(C(=O)OCC)CC4)cc3)c2C(N)=O)C1
 : i, 4.3
- COc1ccc(/C=C/C(=O)OCC(=O)Nc2ccc(N3CCOCC3)cc2)cc1OC
 : i, 0.19
- CC1CCCC(C)N1C(=O)CSc1nnc(-c2cccs2)o1 (configuration not stated)
 : i, -0.36
- Cc1ccc(C)c(N2CCN(CCCc3ccccc3)CC2)c1
 : i, 0.82
- O=[N+]([O-])c1ccc2c(c1Nc1ccccc1)=NC1(CCCCC1)N=2
 : i, 0.01
- O=C(COc1ccc(F)cc1Cl)Nc1ccccc1C(=O)N1CCCCC1
 : -8.6*, 1.3*
- COC(=O)c1ccc(/C=N/Nc2nc(-c3ccccc3)cs2)cc1
 : i, 0.46
- Cc1noc(/C=C/N(C)C)c1S(=O)(=O)N(C)CC(=O)NC1CCCCC1
 : i, -0.19
- COc1ccc(C)cc1NC(=O)c1ccc(CN2CCN(c3ccccc3)CC2)cc1
 : i, -0.32
- CCOC(=O)C1=C(C)NC(=O)CC1c1cc2c(cc1[N+](=O)[O-])OCO2 (configuration not stated)
 : i, -0.49
- CC(C)(C)N(Cc1ccccc1)C(=O)COC(=O)CN1C(=O)C2CC=CCC2C1=O (configuration not stated)
 : i, 0.92
- CC12CCC(C/C1=N/OC(=O)c1cccc([N+](=O)[O-])c1)C2(C)C (configuration not stated)
 : i, -0.41
- COc1ccc(NS(=O)(=O)c2ccc(NS(=O)(=O)c3ccc(C)cc3)cc2)nn1
 : i, 0.03
- Cc1ccc(F)c(NC(=O)c2ccc(Cn3cc(Cl)cn3)cc2)c1
 : i, -2.4
- CCN(CC)c1ccc(/C=C2\SC(=O)N(C(C)C)C2=O)o1
 : i, 15
- COc1ccccc1NC(=O)c1cc2cc(Br)ccc2oc1=N
 : i, 1.1
- CC1=CC(C)(C)Nc2ccc(OC(=O)CN3C(=O)C4CCCCC4C3=O)cc21 (configuration not stated)
 : i, 1.2
- Cc1cc(Nc2ccccc2)n(C(=O)c2ccc(Cl)cc2)n1
 : i, 0.15
- COc1ccc(C(=O)N2CCN(Cc3cc(OC)ccc3OC)CC2)cc1
 : i, 3
- O=C(NCc1cccs1)c1cc2ccccc2o1
 : i, 0.69
- CC1=C(C(=O)c2ccccc2)C(c2cn(-c3ccccc3)nc2-c2ccc(Cl)cc2)NC(=S)N1 (configuration not stated)
 : i, 2
- COc1ccc(C2CN=NC23CCCc2ccccc2C3=O)cc1 (configuration not stated)
 : i, 2.4
- CCCc1cc(=O)oc2cc(C)cc(OC(C)C(=O)NCC(O)c3ccccc3)c12 (configuration not stated)
 : i, 0.97
- CC(C)Oc1ccc(C(=O)N2CCN(C(=O)c3ccco3)CC2)cc1
 : i, 0.53
- CCOC(=O)c1ccc(-c2nnc(-c3ccc(Cl)cc3Cl)o2)cc1
 : i, -1.6
- COC(=O)[C@@H](Cc1ccccc1)NC(=O)NCCc1c[nH]c2ccccc12
 : i, 0.71
- CCCn1c(CCc2ccccc2)nnc1SCC(=O)N1CCCC1
 : i, -1.3
- COC(=O)C1CCN(C(=O)/C=C/c2ccc(OC)cc2)CC1
 : i, 0.88
- CN(Cc1cnccn1)C(=O)c1cc(COc2cccc(C(F)(F)F)c2)on1
 : i, -1.1
- O=C(Oc1ccc(-c2ccccc2)cc1)C1C2CCCCC21 (configuration not stated)
 : i, 0.15
- Cc1ccc(N2CC(C(=O)Nc3ccc4c(c3)OCO4)CC2=O)cc1C (configuration not stated)
 : i, 0.33
- CN(C)S(=O)(=O)c1ccc(N2CCCC2)c(C(=O)Nc2ccccc2F)c1
 : i, -1.2
- COc1ccc(-c2[nH]ncc2N=Nc2ccccc2)cc1
 : i, -1.6

Individual results from the list:
Entry for `Cc1ccc(N2CC(C(=O)Nc3ccc4c(c3)OCO4)CC2=O)cc1C` (configuration not stated) under KCNQ2 block baseline: 0.33
Entry for `O=C(Oc1ccc(-c2ccccc2)cc1)C1C2CCCCC21` (configuration not stated) under KCNQ2 block baseline: 0.15
Entry for `CCCn1c(CCc2ccccc2)nnc1SCC(=O)N1CCCC1` under KCNQ2 block baseline: -1.3
Entry for `CCOC(=O)c1ccc(-c2nnc(-c3ccc(Cl)cc3Cl)o2)cc1` under KCNQ2 block baseline: -1.6
Entry for `CN(C)S(=O)(=O)c1ccc(N2CCCC2)c(C(=O)Nc2ccccc2F)c1` under KCNQ2 block baseline: -1.2
Entry for `CC(C)Oc1ccc(C(=O)N2CCN(C(=O)c3ccco3)CC2)cc1` under KCNQ2 block baseline: 0.53

The listing continues:
Under each structure – KCNQ2 block, KCNQ2 block baseline
- O=C(/C=C/c1ccccc1)NC(=S)NNC(=O)c1cccnc1
 : i, 0.02
- CC(=O)Nc1cccc(NC(=S)Nc2cccc(Cl)c2Cl)c1
 : i, -0.03
- CCOc1ccc(NC(=O)CC2C(=O)N(CC)C(=S)N2NC(=O)c2ccncc2)cc1 (configuration not stated)
 : i, -0.02
- CCN(CC)c1cnn(C/C(=N\OC)c2ccc(Cl)cc2)c(=O)c1Br
 : i, 0.83
- COC(=O)c1cnc(Oc2ccc(NC(=O)NC(=O)c3c(OC)cccc3OC)cc2)cc1C(F)(F)F
 : i, 1.3
- CCOC(=O)c1ccc(-c2c(-c3cc(OC)c(OC)c(OC)c3)noc2C)cc1F
 : i, -0.92
- COC(=O)c1cc2c(s1)-c1ccccc1OC2
 : i, 1.2
- CCOCCCn1c(SCC(=O)Nc2oc(C)c3c(C)n[nH]c(=O)c23)nnc1-c1ccncc1
 : i, 6.2
- CCCCNC(=O)/C(=C/c1ccco1)NC(=O)c1ccco1
 : i, -0.51
- CCn1cc(S(=O)(=O)c2ccc(C)cc2)c(=O)c2cc(F)c(N3CCN(C)CC3)cc21
 : i, 0.12
- O=C(Nc1cc(=O)[nH]c(=O)[nH]1)c1cccc(C(F)(F)F)c1
 : i, 0.32
- Cc1cc(C)n(-c2ccc(C(=O)Nc3ccc4c(c3)OCCO4)cc2)n1
 : i, 0.04
- C/C(=N\Nc1nc2ccccc2s1)c1cccs1
 : i, 3.4
- Cc1ccc(S(=O)(=O)c2cnc(-c3ccccc3)nc2N2CCN(C)CC2)cc1
 : i, -0.2
- CN1CCN(c2nc(-c3ccc(Cl)s3)cs2)CC1
 : i, -0.48
- Cc1ccc(-c2nnc3c(C(F)(F)F)nc4ccccc4n23)cc1
 : i, 0.07
